# KSHV LANA nucl: inhibitors of KSHV LANA binding to nucleosomes; AID 720717; z-score (test concentration not listed); actives 0.3% (n = 51,000); FITC-LANA1-23 / chicken nucleosome fluorescence polarization; hits give low values;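 active = both repeat wells score below -2 in polarization z-score versus plate sample wells, excluding overly bright wells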;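 also: 100 nL library stock added to about 30 µL; numbers are from one replicate; some results filed as inactive read as strong as hits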
#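 System – purified chicken nucleosomes with FITC-labelled LANA N-terminal peptide (1-23) · Amount – 240 nM purified chicken nucleosomes (480 nM peptide binding sites), final · Also added – 50 nM FITC-LANA1-23 probe · Medium – TEN-BT buffer, pH 7.5 · Incubation – compound with peptide–nucleosome mix 10–45 min at room temperature · Detection – fluorescence polarization, ex 480 nm, em 535 nm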
# Ab BasE inh: BasE siderophore biosynthesis inhibition. purified BasE, fluorescence polarization binding displacement. inhibition, % (no concentration beside the values). actives 0.1% (n = 84,000). AID 485350;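 active = both replicates above 25% with normal brightness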;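 also: 0% = negative plate control signal and 100% = positive plate control signal; stock transfer was 100 nL into about 30 µL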
# Active calls of the source: *; nt = no result given; & = joins results of further samples. Only part of the results is shown. The share of hits here may be higher or lower than overall.
SMILES,KSHV LANA nucl,Ab BasE inh
CN(c1ccc(F)cc1)S(=O)(=O)N1CCCC(C(=O)N2CCN(c3ncccn3)CC2)C1 (configuration not stated),1.4,-0.2
O=c1cc(NCc2ccccc2)n(-c2ccccc2)c(=O)n1-c1ccccc1,nt,1.9
CC(C)n1c(C(O)c2ccc(N(C)C)cc2)nc2ccccc21 (configuration not stated),nt,-0.3
Oc1ccc2ccccc2c1C1Nc2ccccc2-n2cccc21 (configuration not stated),nt,2.6
C=CCNc1nc(SC)nc2ccccc12,0.061,nt
c1ccc2c(NC3CC3)nc(N3CCCC3)nc2c1,-0.065,-2.2
CCCCn1c(=O)[nH]c(=O)c2c1nc(-c1ccc(-c3ccc(Cl)cc3)o1)n2C,nt,2.3
O=C(OCc1ccccc1)C1=NNC2C(=O)N(Cc3ccccc3)C(=O)C12 (configuration not stated),1,-0.4
CN(C1CCCC1)C1CCN(C(=O)CNC(=O)/C=C/c2ccccc2F)CC1,-0.18,-3.9
Cc1ccc(C=Nc2cccc(Cl)c2)cc1,nt,-0.4
CN(Cc1ccccc1)C(=O)c1ccc2c(c1)NC(=O)C(N1CCOCC1)S2 (configuration not stated),1.5,1.0
O=C(O)c1c2c(nc3ccc(Br)cc13)CCCC2,nt,3.1
COc1ccc(CNn2cnnc2)c(O)c1,-0.14,0.0
CCc1cccc(NC(=O)C2COc3ccccc3O2)c1 (configuration not stated),nt,3.4
O=c1c(=NNc2ccc(S(=O)(=O)N3CCOCC3)cc2)c(=O)c2ccccc12,nt,2.1
CCN1CCCC1Cn1c(=S)[nH]c2ccccc2c1=O (configuration not stated),0.065,1.0
CCCOc1ccc(OCCSc2nc(N)cc(=O)[nH]2)cc1,nt,1.0
COc1ccc(CNCCCn2ccnc2)c(OC)c1,0.61,-5.5
O=C(O)CCCn1ccc2cc(S(=O)(=O)N3CCCC3)ccc21,1.3,-1.6
CCCCn1c(SCC(=O)NC)nc2ccccc2c1=O,nt,-2.7
CCOC(=O)C1=C(C)NC(=S)NC1c1ccc(-c2ccccc2Cl)o1 (configuration not stated),nt,2.2
FC(F)(F)c1cccc(N2CCN(Cc3ccoc3)CC2)c1,-0.023,-2.6
NC(=O)C[n+]1cccc(/C=N/O)c1,0.43,-1.8
CCNC(=O)c1ccc(-n2c(C)ccc2C)cc1,nt,2.0
CC(C)NC(=O)/C(C#N)=C/c1nn(Cc2ccccc2)cc1-c1cccnc1,nt,1.3

# Sorted by length of the SMILES (descending): seven of the compounds above
SMILES,KSHV LANA nucl,Ab BasE inh
CN(C1CCCC1)C1CCN(C(=O)CNC(=O)/C=C/c2ccccc2F)CC1,-0.18,-3.9
O=c1cc(NCc2ccccc2)n(-c2ccccc2)c(=O)n1-c1ccccc1,nt,1.9
CCOC(=O)C1=C(C)NC(=S)NC1c1ccc(-c2ccccc2Cl)o1 (configuration not stated),nt,2.2
Oc1ccc2ccccc2c1C1Nc2ccccc2-n2cccc21 (configuration not stated),nt,2.6
CCCCn1c(SCC(=O)NC)nc2ccccc2c1=O,nt,-2.7
COc1ccc(CNCCCn2ccnc2)c(OC)c1,0.61,-5.5
COc1ccc(CNn2cnnc2)c(O)c1,-0.14,0.0

# Further results follow:
SMILES,KSHV LANA nucl,Ab BasE inh
Cc1ccc(C)c(C(=O)C(C)OC(=O)c2cccn2C)c1 (configuration not stated),nt,2.4
Cc1ccc2c(c1)N(CCC(=O)NCc1ccccc1)C(=O)CO2,-0.29,-4.0
CCC(=O)Nc1ccc(C(=O)Nc2ccc(S(=O)(=O)N3CCCCC3)cc2)cc1,-0.2,-0.2
CCOC(=O)c1ccccc1NS(=O)(=O)c1ccc2c(c1)OCCO2,nt,1.1
CC1CC(C)CN(c2nc(Nc3ccccc3)c3cnn(C)c3n2)C1 (configuration not stated),-1.1,0.0
CCOC(=O)c1sc(S(N)(=O)=O)c(C(=O)OCC)c1C,nt,-4.3
COc1ccccc1C1CCN(Cc2cccc3ccccc23)CC1,nt,1.4
COCCNC(=S)Nc1ccn(C)n1,-0.05,2.3
COc1ccc(N/C=C2/CCCCC2=O)cc1,0.37,4.6
CCc1ccc2nc(N3CCCCC3)c(C#N)cc2c1,-0.22,0.5
CCCCN(C)C(=O)c1cn(CC(C)C)c(=O)c2cc(OC)c(OC)cc12,0.45,2.3
C=CCOc1nc(N2CCCCC2)nc(N2CCCCC2)n1,0.39,-0.7
Cc1ccc(S(=O)(=O)N2CCN(C(=O)CSc3nccn3C)CC2)cc1,nt,-0.1
CC(C)C(=O)N1C2=C(C(=O)c3ccccc32)C(c2ccc(Cl)cc2)c2c1n(C)c(=O)n(C)c2=O (configuration not stated),nt,2.6
CC[C@H]1[C@@H]2C=C[C@@H]3[C@H]4C/C=C\C(=O)NCCC[C@@H]5NC(=O)C(=C5O)C(=O)CC[C@@H]4C[C@@H]3[C@H]2C[C@H]1C,-0.004,-0.1
c1ccc2c(c1)CCN(Cc1nc3ccccc3[nH]1)C2,nt,0.3
COc1ccccc1N1C(=O)C2CC=CC(C)C2C1=O (configuration not stated),-1,2.3
COC(=O)CN1c2ccccc2S(=O)(=O)c2ccccc21,0.041,-0.6
Cc1ccc(C)n1-c1ccccc1CN(C)C1CCCCC1,nt,2.2
O=C(O)C(=O)/C=C(\O)c1ccc(Cl)cc1,-0.37,3.9
NC(=O)CSc1ncc(CO)n1Cc1ccccc1,-0.46,1.2
CCCOc1ccc(C(=O)NCC(C)(C)N2CCOCC2)cc1,nt,0.9
O=C(CC1NCCNC1=O)NCCc1ccccc1 (configuration not stated),-1,1.1
CN1C(=O)CSC1=NC12CC3CC(CC(C3)C1)C2,-0.24,0.4
O=C(/C=C/c1ccco1)OCc1ccc(Br)cc1,nt,-0.3
# (cont.)
SMILES,KSHV LANA nucl,Ab BasE inh
O=C(CO/N=C/c1cccc(Oc2ccccc2)c1)N1CCN(C(=O)c2ccco2)CC1,nt,1.0
O=C(Cn1ncc(Cl)c(Cl)c1=O)N(C1=CCCCC1)C1CC1,nt,1.2
COc1ccc2cc(CCC(C)=O)ccc2c1,-0.54&0.33&-0.09&-0.5,-2.5&-2.6
C=CCOc1cccc(-c2nc(-c3ccccn3)no2)c1,-0.58,0.0
COc1cc(OC)cc(C(=O)OC(C)C(=O)NC2CCCCC2)c1 (configuration not stated),nt,2.6
Cc1csc2nc(CN(C)Cc3ccccc3)cc(=O)n12,0.92,-1.1
C=CCn1c(-c2ccc(OC)cc2)csc1=Nc1ccc(Br)cc1,nt,-0.6
O=C(/C=C/c1ccccc1)Nc1ccc(-c2nnc(-c3ccco3)o2)cc1,-0.45,0.9
CSc1nnc2c(n1)OC(C)Nc1ccc(Br)cc1-2 (configuration not stated),-0.5,8.2
O=C(NCC(=O)N1CCN(c2ccccc2)CC1)c1cccs1,1.5,-1.1
O=C(NCC1CCN(S(=O)(=O)c2ccccc2)CC1)Nc1ccccc1,0.42,0.0
CCCN1C(=O)C2ON(c3ccccc3)C(c3ccncc3)C2C1=O (configuration not stated),0.092,1.5
CCCN1Cc2cccc(C(N)=O)c2C1=O,nt,-1.1
O=C(CN1CCC(N2CCCCC2)CC1)c1ccc2c(c1)OCCO2,0.61,0.0
O=C1C=C(Nc2ccccc2)C(=O)N1Cc1ccccc1,-0.95,1.2
N[C@@H]1CONC1=O,0.47&-0.42&-1.1&-0.12,-1.6&2.8
O=S1(=O)CC(Sc2ccc(Cl)cc2)c2ccccc21 (configuration not stated),nt,1.1
CCOc1ccc2cc(C3CC(c4ccco4)=NN3S(=O)(=O)c3ccccc3)c(Cl)nc2c1 (configuration not stated),nt,-1.3
CCOC(=O)N1CCC(NC(=O)C2c3ccccc3C(=O)N(C)C2c2cn(C)c3ccccc23)CC1 (configuration not stated),0.23,1.1
COc1ccccc1NC(=O)NNc1c(C)cc(C)cc1C,nt,0.1
N#Cc1cc(C(=O)O)c(=O)[nH]c1SCc1ccccc1Cl,nt,-7.5
Cc1ccc(NS(=O)(=O)c2cccc(C(=O)Nc3ccccc3)c2)cc1,nt,0.8
C[C@H](N=C1NS(=O)(=O)c2ccccc21)C(=O)OCC(=O)N1CCC(c2ccccc2)=N1,nt,2.7
NS(=O)(=O)c1ccc(NC(=O)CN2CCCC2)cc1,0.22,1.7
C(CN1CCOCC1)NC1CC2CCC1C2 (configuration not stated),-1.3,-0.6
# The list goes on.
SMILES,KSHV LANA nucl,Ab BasE inh
Nn1c(SCCCSc2nnc(C(F)(F)F)n2N)nnc1C(F)(F)F,nt,3.7
CCCCC(=O)Nc1cc(-c2nc3cc(C(C)C)ccc3o2)ccc1OC,-1.4,1.0
CC(=O)Nc1cccs1,0.0075,0.3
Cn1c(=O)c2[nH]c(-c3ccc(OCC(=O)NCc4ccccc4)cc3)nc2n(C)c1=O,-1.4,-0.6
Cc1cccc(C(=O)N2CCN(S(=O)(=O)N3CCCCC3)CC2)c1,-1.2,0.2
CC(C)C(=O)Nc1ccc([N+](=O)[O-])c(C(F)(F)F)c1,-0.62&0.14&-0.85&-0.33,-0.5&-0.2
CCCCc1ccc(NC(=O)Nc2cc(C(C)(C)C)nn2C)cc1,-0.42,-2.5
Cc1c(C)c(C)c(C(=O)CCc2cccc(NC(=O)C3CCC3)c2)c(C)c1C,nt,0.6
Cc1ccc2c(CN3CCN(CC#N)CC3)cc(=O)oc2c1,0.0055,-0.1
O=C(N/C=C/c1ccsc1)Nc1ccccc1C(F)(F)F,nt,4.7
NC(=O)c1c(O)sc2c1CCCC2,nt,1.4
CCOC(=O)c1c(C)[nH]c(NC(=O)NCc2cccnc2)c1C,-1,0.3
O=S(=O)(Nc1nc2ccccc2nc1Nc1ccccc1F)c1ccc(Cl)cc1,nt,-1.1
CC12CC3CC(C)(C1)CC(NCc1ccccn1)(C3)C2,-0.88,-0.4
CN(Cc1ccccc1)S(=O)(=O)c1ccc(C(=O)Nc2nnc(-c3ccco3)o2)cc1,-0.29,-0.8
C/C(=N\OCc1ccccc1C#N)c1cc2ccccc2o1,nt,2.1
N#CC(C(=O)CCN1C(=O)c2ccccc2C1=O)c1nc2ccccc2[nH]1 (configuration not stated),nt,-0.9
NNS(=O)(=O)c1ccc(Cl)cc1,nt,0.3
Cc1cccc(-c2n[nH]c(=S)n2C2CCCCC2)c1,0.66,-1.7
COc1ccc(OC)c(C(=O)CC2(O)C(=O)Nc3ccccc32)c1 (configuration not stated),nt,-0.9
CC1(C)CC2CC(C)(CN2C2=CC3=CC(=C(C#N)C#N)CCC3CC2)C1 (configuration not stated),nt,13
C=CCn1c(SCC(=O)Nc2ccc3c(c2)OCO3)nc2ccccc2c1=O,nt,0.8
COC(=O)C12CCC(C)(C(=O)O1)C2(C)C (configuration not stated),-1.2,3.5
CCOC(=O)c1sc(N)c(C#N)c1COC(=O)CNC(=O)c1ccccc1,nt,-46
Cc1sc2ncnc(N)c2c1C,nt,4.2

# Entries of single compounds, looked up by structure.
# Entry for CCCCC(=O)Nc1cc(-c2nc3cc(C(C)C)ccc3o2)ccc1OC → KSHV LANA nucl: -1.4; Ab BasE inh: 1.0
# Entry for O=C(N/C=C/c1ccsc1)Nc1ccccc1C(F)(F)F → KSHV LANA nucl: nt; Ab BasE inh: 4.7

# Next entries
SMILES,KSHV LANA nucl,Ab BasE inh
N#C/C(=C/c1cn(-c2ccccc2)nc1-c1cc2ccccc2oc1=O)C(N)=O,-0.89,1.2
CC(C)(C)NS(=O)(=O)c1ccc(NC(=O)c2ccc(Br)o2)cc1,1.1,0.1
CN(C)C=Nc1ccc(S(=O)(=O)c2ccc(N=CN(C)C)cc2)cc1,nt,-1.8
Cc1ccc(N/N=C(/C#N)C(=N)N2CCCCCC2)cc1,-0.91,-0.9
S=C(NC1CCCC1)N1CCN(C/C=C/c2ccccc2)CC1,0.12,-0.1
CC(=O)Nc1ccc2c(c1)n(C)c(=O)n2C,0.24,-2.2
O=C(Cn1nnc(-c2ccccc2Cl)n1)N1CCN(S(=O)(=O)c2ccc(Cl)cc2)CC1,nt,-4.8
Cc1ccc(/C=C/C(=O)NC2CCCc3ccccc32)o1 (configuration not stated),nt,-1.3
COc1ccc(Cl)c2sc(N3CCN(C(=O)CS(=O)(=O)c4ccc(F)cc4)CC3)nc12,0.15,-0.8
NC(=O)N/N=C/c1coc2ccccc2c1=O,-0.64,2.8
CC(C)OC(=O)c1ccc(NC(=O)CSc2nc3ncccc3[nH]2)cc1,nt,-4.2
NC(=O)c1sc(-c2ccsc2)cc1NC(=O)c1cccs1,nt,0.9
CC(C)(C)c1cc(CCC(=O)N2CCC2)cc(C(C)(C)C)c1O,nt,-1.2
C/C(=N\N(C)C)c1cc(Cl)cc(Cl)c1O,nt,-0.1
O=C1Nc2ccccc2N2C1CC(=O)N(c1ccccc1)C2c1ccc(F)cc1 (configuration not stated),nt,-0.7
O/N=C/c1c(O)c(Br)cc2oc3c(c12)CCCC3,nt,1.3
CC(=O)N[C@@H](CSC/C=C(\C)CC/C=C(\C)CC/C=C(\C)CCC=C(C)C)C(=O)O,0.19,-3.1
CC1CN(C(=O)Cn2c(C(F)(F)F)nc3ccccc32)CC(C)O1 (configuration not stated),0.069,nt
COCC(C)N1C(=O)Cc2c1nc(N)c1c(N)nc(N3CCN(c4ccccc4F)CC3)c(C#N)c21 (configuration not stated),nt,-0.1
CC(=O)Nc1ccc(/C(C)=N/NC2=NCCN2)cc1Br,0.89,-0.9
[O-][n+]1onc(-c2ccccc2)c1-c1ccccc1,-1.1,0.3
Cc1ccc(S(=O)(=O)N2CCN(Cn3nc(Nc4ccccc4F)sc3=S)CC2)cc1,nt,3.6
Cn1c(COc2ccc(Cl)cc2)nnc1SCC(=O)Nc1c(C#N)oc2ccccc12,nt,-3.1
O=C1Nc2ccccc2C(=O)C1(O)O,-0.96,3.0
CC12CCC(=O)N1C(C(=O)OCC(=O)c1ccc(F)c(F)c1)CS2 (configuration not stated),nt,0.8
Cc1cc(C)cc(C(=O)/C=C2\NC(=O)CS2)c1,nt,-0.7

# Screens as filed in PubChem.
